HCMV NEC inh = inhibitors of HCMV UL50-UL53 nuclear egress complex interaction; HTRF UL50-UL53 interaction, normalized percent inhibition; inhibition, % (no concentration beside the values); 190,000 compounds, 0.15% hits; AID 1918969;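 active = both replicates at 50% or more, plus weaker picks with an unusually low signal ratio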;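 note: stock transfer was 100 nL into about 20 µL; 0% = negative control wells and 100% = wells with untagged competitor protein; inactives centre near -12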
GIV Gai3 FP = GIV-Galpha-i interaction inhibition. P08753. Galpha-i3/FITC-GIV peptide fluorescence polarization, 90 min; stronger effect = lower value; scaled: aluminum fluoride 0%, vehicle 100%. percent of control (FP), % (test concentration not listed). 210,000 compounds, 0.42% hits. AID 1224905;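 active = replicate mean at 85% of control or lower, very high polarization wells dropped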;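 note: wells of about 15 µL received 100 nL stock; the first replicate is given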
Target sequence (P08753 whole entry, looked up): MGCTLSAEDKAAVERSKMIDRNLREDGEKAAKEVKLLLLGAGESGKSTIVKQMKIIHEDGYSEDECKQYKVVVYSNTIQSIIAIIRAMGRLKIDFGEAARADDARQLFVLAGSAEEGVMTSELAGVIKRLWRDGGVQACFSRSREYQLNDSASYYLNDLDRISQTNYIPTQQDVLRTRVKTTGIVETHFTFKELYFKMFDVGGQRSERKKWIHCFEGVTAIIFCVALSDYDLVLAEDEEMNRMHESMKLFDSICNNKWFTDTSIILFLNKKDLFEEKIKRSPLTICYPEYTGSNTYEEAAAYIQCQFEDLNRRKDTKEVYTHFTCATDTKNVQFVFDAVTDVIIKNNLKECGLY
Sa growth 42C = S. aureus growth inhibition; S. aureus RN4220 growth, OD600, 20 h, 42 °C; stronger effect = lower value; relative growth, % (concentration not given with the values); 170,000 compounds, 0.53% hits;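 active = growth at 42 °C up to 50% and 20 or more points under that at 30 °C, or under 10% at both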;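 note: 300 nL library stock went into each well; scaled to the means of positive and negative controls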
Sa growth 42C second temp = recorded beside Sa growth 42C, whose call it bears; relative growth, %; measured here: growth at 30 °C;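 optical density after 20 h as mean of two plates; 100% = untreated growth and lower means inhibition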
Numbers without * were called inactive; . = no result given; & = joins results of further samples.

Each structure is followed by: HCMV NEC inh, GIV Gai3 FP, Sa growth 42C, Sa growth 42C second temp
Cn1c(=O)c2c(nc(CN3CCN(c4ccccc4F)CC3)n2Cc2ccccc2F)n(C)c1=O
→ -21, 105, 98, 89
O=C(NCc1ccco1)C1CCN(c2nccc(C(F)(F)F)n2)CC1
→ -36, 105, 91, 87
Cc1ccc2occ(CC(=O)Nc3ccc(S(=O)(=O)N4CCCC(C)C4)cc3)c2c1 (stereo not given)
→ -6, 100, 94, 95
CCS(=O)(=O)N1CCC(C(=O)N2CCc3ccccc3C2)CC1
→ ., 111, 95, 85
CCOc1ccc(C(=O)OCC(=O)N2CCCCC2)cc1OCC
→ -11, ., 92, 98
CC1=C(C(=O)Nc2cccc(C(F)(F)F)c2)C(c2cccnc2)C2=C(CC(c3ccccc3)CC2=O)N1 (stereo not given)
→ -1, 107, ., .
CC(=O)Oc1ccccc1C(=O)NCc1ccc(F)cc1
→ -19, 106, 76, 75
CON1C(=O)c2ccccc2C1=O
→ -60, 110, 105, 90
CC1(C)CC2CC(C)(CN2CC(O)COCc2ccc(Cl)cc2)C1 (stereo not given)
→ -7, ., 135, 86
COc1ccc2cc3c(nc2c1)N(C(=O)c1ccc(Br)cc1)CC3
→ 15, 105, ., .
CCOc1ccc(NC(=O)Cn2cc(C(=O)c3ccc(C)cc3)c(=O)c3cc4c(cc32)OCO4)cc1
→ -30, 102, 98, 92
Cc1cc(SCc2ccccc2)nc(=O)[nH]1
→ -22, 101, 93, 76
Cn1cnnc1SCc1cccc(CSc2nncn2C)n1
→ -1, ., 95, 82
COC(=O)Cn1c(=NC(=O)c2ccc3c(c2)OCCO3)sc2ccccc21
→ ., 102, 95, 93
CN(C)CCCN1C(=O)C(=O)/C(=C(/O)c2ccc3c(c2)OCO3)C1c1cccnc1 (stereo not given)
→ -11, 103, 108, 97
N#CC1(NC(=O)c2cc3ccccc3oc2=O)CCCCC1
→ ., 103, 110, 89
CC1(C)C2CCC1(C)C(OCC[N+]1(C)CCCC1)C2 (stereo not given)
→ ., 108, 81, 84
COc1ccc(CCN(C)C(=O)Cn2c(=O)oc3ccccc32)cc1OC
→ 14, ., 90, 93
CCOC(=O)/C(C#N)=C\c1cn(C)c2ccccc12
→ -35, 106, 128, 89
CC1(C)CC(=NOC(=O)c2ccccc2)CC(C)(C)N1[O]
→ 0, 102, 104, 74
Fc1ccc2c(c1)-c1c(cnc3cc(-c4ccccc4)nn13)CO2
→ -7, 102, ., .
Cc1cccc(C)c1NC(=O)CSC(=O)c1cccs1
→ ., 101, 102, 89
CCCN(CCC)c1cc(Cl)nc(N)n1
→ -3, 104, ., .
CC(=O)Nc1cccc(/C(C)=N/NS(=O)(=O)c2ccc(C)cc2)c1
→ -13, 99, 102, 91
CCCN(CCC)C(=O)CSc1nc2ncccc2[nH]1
→ 5, 107&103, 104, 93
COc1ccc(N2CCN(Cc3cccn3-c3nnc(N4CCN(C5CCCCC5)CC4)s3)CC2)cc1
→ ., 103, 94, 87
CCOC(=O)c1nc(NCCCN2CCc3ccccc3C2)c2ccccc2n1
→ 10, 110, 112, 103
CC12CN3CC(C)(CN(C1)C3c1ccc(N)cc1)C2O (stereo not given)
→ -12, 99, ., .
O=C(Cc1ccc(NC(=O)N2CCCCc3ccccc32)cc1)NCc1cccc(Br)c1
→ ., 97, 104, 91
COc1ccc(CN2C(=O)N(CC(=O)NC(C)C)c3ccccc3S2(=O)=O)cc1
→ -23, 102, 105, 89
Cc1cc(C)c(C(=O)N2CCCC(C(=O)N3CCOCC3)C2)[nH]1 (stereo not given)
→ -20, 97, ., .
O=c1sc(N2CCN(C3CCCCC3)CC2)nc2ccsc12
→ ., 107, 102, 95
O=C(O)COc1ccc2ccccc2c1Br
→ -58, ., 88, 88
CCCCSCCCNC(=O)c1cc(-c2cccnc2)nc2ccc(S(=O)(=O)N3CCC(C)CC3)cc12
→ ., 107, 110, 95
Cc1ccc(-n2c(C)cc(C=Nc3ccc4[nH]c(=O)[nH]c4c3)c2C)cc1
→ 3, ., 94, 97
N#C/C(N)=C(/C#N)N=Cc1ccccc1
→ -33, 102, 109, 78
CC(C)(C)NC(=O)C1CCN(S(=O)(=O)c2ccccc2)CC1
→ -12, 97, 98, 72
N#C/C(=C\Nc1cc(C(F)(F)F)cc(C(F)(F)F)c1)S(=O)(=O)c1ccccn1
→ 27, 109, 91, 46
O=S(=O)(NCCc1ccc(Cl)cc1)c1ccc(N2CCCCS2(=O)=O)cc1
→ ., 96, 103, 83
Cc1ccccc1N1C(=O)c2cccnc2C1=O
→ -19, 99, ., .
O=C(Nc1ccccc1)C1=NN(c2ccccc2)C(=O)CC1
→ 0, ., 97, 99
Cn1c(=O)c2sccc2n2c(SCc3ccc(N4CCCC4=O)cc3)nnc12
→ -25, 98, ., .
COc1ccc(-n2c(=O)c3c4c(sc3n(Cc3ccccc3)c2=O)CN(C(C)=O)CC4)cc1OC
→ -3, 103, 113, 81
COc1ccc(C(=O)NCc2nnc(SCC(=O)NO)n2-c2cccc(F)c2)cc1
→ -24, 103, 103, 87
Nc1ccc(Sc2ccc(Cl)cc2)nc1
→ -30, 106, 97, 98
O=C(NCc1ccc2c(c1)OCO2)C1CCN(c2ccc(Cl)cc2)C1=O (stereo not given)
→ 4, 110, ., .
N#C/C(=C\c1ccc(OC(=O)c2ccco2)cc1)S(=O)(=O)c1ccccc1
→ -11, 106, 97, 97
CC(CCc1ccccc1)NC(=O)CCc1cn(-c2ccccc2)nc1-c1ccc2c(c1)OCO2 (stereo not given)
→ -20, 97, ., .
Cn1c(Cc2cccs2)nnc1SCC(=O)N1CCCc2ccccc21
→ 11, 99, 91, 78
CCCCCn1c(=O)[nH]c2cc(C(=O)NCc3ccc(OC)cc3)ccc2c1=O
→ -30, 101, 93, 92
Cc1cccc(OCC(=O)Nc2ccc(CC(=O)O)cc2)c1C
→ -29, 95, 107, 96
Cn1cnc2c(=O)oc3ccccc3c21
→ -18, 102, 84, 78
COc1cccc(C(=O)NCC(C)C)c1
→ -10, 109, 111, 104
O=C(CCn1nc(-c2ccc(Cl)cc2)c2ccccc2c1=O)N1CCN(Cc2ccccc2)CC1
→ ., 96, 83, 31
CCn1cc2nc(SCc3cccc(F)c3)n(Cc3ccccc3F)c(=O)c2n1
→ 2, 109, ., .
O=S(=O)(NCCSc1nnnn1-c1ccccc1)c1ccc(F)cc1
→ 8, 105, 102, 95
CCCc1cc(=O)[nH]c(-n2nc(C)cc2NC(=O)c2ccccc2Br)n1
→ -16, 95, ., .
Cc1sc(NC(=O)C(C)C)c(C(=O)O)c1C
→ -7, ., 125, 86
CC1=C(C(=O)Nc2cccnc2)C(c2ccccc2)n2nc(SCc3ccccc3F)nc2N1 (stereo not given)
→ -24, 110, 102, 88
Cc1cccc(NC(=O)c2c3c(nc4ccccc24)C(=O)N(C2CCCCC2)C3)n1
→ -19, 105, ., .

Compound profiles, as listed above:
O=C(CCn1nc(-c2ccc(Cl)cc2)c2ccccc2c1=O)N1CCN(Cc2ccccc2)CC1 is listed with HCMV NEC inh: .; GIV Gai3 FP: 96; Sa growth 42C: 83; Sa growth 42C second temp: 31
COc1ccc(C(=O)NCc2nnc(SCC(=O)NO)n2-c2cccc(F)c2)cc1 is listed with HCMV NEC inh: -24; GIV Gai3 FP: 103; Sa growth 42C: 103; Sa growth 42C second temp: 87

Some entries already given, limited to Sa growth 42C and Sa growth 42C second temp.
SMILES	Sa growth 42C	Sa growth 42C second temp
O=c1sc(N2CCN(C3CCCCC3)CC2)nc2ccsc12	102	95
O=C(O)COc1ccc2ccccc2c1Br	88	88
CCCCSCCCNC(=O)c1cc(-c2cccnc2)nc2ccc(S(=O)(=O)N3CCC(C)CC3)cc12	110	95
Cc1ccc(-n2c(C)cc(C=Nc3ccc4[nH]c(=O)[nH]c4c3)c2C)cc1	94	97

Additional entries.
Each structure is followed by: HCMV NEC inh, GIV Gai3 FP, Sa growth 42C, Sa growth 42C second temp
Cc1cccc(Cn2c(N(C)Cc3ccccc3)nc3c2c(=O)[nH]c(=O)n3C)c1
→ -13, 101, 98, 105
CCC(=O)c1cc2c(C)cc(=O)oc2c(C)c1C(=O)c1ccccc1
→ ., 101, 99, 92
CCc1nnc(SCc2nc(-c3ccccc3)oc2C)c2cc3sccc3n12
→ ., 105, 115, 77
CCC(C)NC(=O)CSc1cc(=O)n(C)c2ccc(Cl)cc12 (stereo not given)
→ ., 101, 95, 85
COc1cc(C(=O)Nc2sc3c(c2C(N)=O)CCC(C)C3)cc(OC)c1OC (stereo not given)
→ -43, 101, 95, 82
COc1ccc(CNC(=O)CCCn2ccc3cc(S(=O)(=O)N4CCCC4)ccc32)cc1
→ -6, 96&101, 91, 80
Cc1cn(S(=O)(=O)c2cn(C)nc2C(F)(F)F)nc1C(F)(F)F
→ -33, 104, 95, 95
CCCSC(=S)c1c(C)[nH]n(-c2ccccc2)c1=O
→ -85, 104, 0.2*, 0.2*
COc1ccc(-n2c3c(cc(C#N)c2=O)C(=O)CCC3)cc1
→ -5, 103, 107, 91
COc1ccc(NCc2cn3ccccc3n2)cc1
→ -7, ., 110, 72
COc1ccc2c(c1)-c1nc(/N=C/c3ccc(C)o3)sc1CC2
→ -56, 98, 87, 69
N/C(=N\OC(=O)Cc1ccccc1)c1ccncc1
→ -11, 102, 106, 75
CCCCc1ccc(N=CNO)c(C)c1
→ -7&-13&-13, 102, 121, 88
Cn1cnc(S(=O)(=O)NCc2ccccc2)c1
→ ., 106, 90, 91
Nc1ccccc1N1CCCC1
→ -95, 108, 2.8*, 1.2*
O=C(CSCC(=O)Nc1cccc2ccccc12)Nc1ccc(Br)cc1
→ -4, ., 139, 74
COC(=O)c1cccc(Cl)n1
→ -21, ., 121, 83
Cn1nc(-c2nc3c4c5c(sc4[nH]c(=O)n3n2)CCC5)c2ccccc2c1=O
→ -5, ., 112, 90
Cc1oc(-c2cccc(Cl)c2)nc1CS(=O)(=O)CC(=O)NCc1ccccc1Cl
→ -7, 95, 78, 72
CCC1=Nc2cc(C(=O)NCc3cccnc3)ccc2Sc2ccc(C)cc21
→ 5, 102, 97, 95
CC(=O)N1c2ccccc2C(C)(C)C2CCC(C)CC21 (stereo not given)
→ -36, ., 71, 88
CCOC(=O)c1ccc(NC(=S)N2CCC(N(C)C(C)CC)CC2)cc1 (stereo not given)
→ 0, 111, 98, 101
COc1ccc(Cl)cc1NC(=O)n1ncc2ccccc21
→ -25, 102, ., .
Cc1ccc(S(=O)(=O)N/N=C/c2ccc3c(c2)n(C)c(=O)n3C)cc1
→ -17, 112, 99, 89
CC(CCc1ccccc1)N1C(=O)c2ccccc2C1C(=O)NCCc1ccccc1 (stereo not given)
→ ., 103, 85, 67
COc1cc(C(=O)Oc2ccc3c(=O)c(-c4ccccc4Cl)coc3c2)cc(OC)c1OC
→ 4, 107, ., .
CCOC(=O)C1CCC(CN(Cc2ccccc2)S(=O)(=O)c2ccc(Br)cc2)CC1 (stereo not given)
→ ., 101, 134, 106
O=C(CC1(O)C(=O)N(Cc2ccccc2)c2ccc(Cl)cc21)c1ccccc1 (stereo not given)
→ 13, 108, ., .
CCN(CC(=O)Nc1cccc(OC)c1)C(=O)Cn1nnc2ccccc21
→ -6, ., 107, 90
Cc1ncc(CO)c(CO)c1O
→ -44&-13&-16&-25, ., 95&115, 88&83
Cc1ccc(-c2nc3sc4c(n3n2)CC(C)(C)CC4=O)cc1
→ -14, ., 104, 88
CCCNC(=O)C1CCCN(c2nn3cc(-c4ccc(C)cc4)nc3s2)C1 (stereo not given)
→ ., 102, 87, 80
O=c1[nH]c2sc3c(c2c(=O)n1Cc1ccco1)CCCC3
→ 2, 102, 106, 103
Cc1ccc(Cl)cc1Nc1nn2c(=O)c3ccc(C(=O)N4CCCC(C)C4)cc3nc2s1 (stereo not given)
→ ., 103, 102, 83
CC1CN(Cc2ccccc2)CCN1C(=O)c1csc(-c2cccs2)n1 (stereo not given)
→ -3, 103, 126, 97
COC(=O)c1cc2c(cc1NC(=O)c1c(C)nn(-c3ccccc3)c1-n1cccc1)OCO2
→ 1, 112, 110, 94
COc1cc(N=Cc2c(O)[nH]c(=O)[nH]c2=O)cc(OC)c1OC
→ -3, ., 99, 91
CC(C)CC(=O)Nc1nnc(Cc2nc3ccccc3[nH]2)s1
→ -23, 107, ., .
O=C(CN1C(=O)CC(c2ccccc2)=Nc2ccccc21)NCCc1ccc(Cl)cc1
→ 3, 106, ., .
COc1cccc(C2N(c3ccccc3)CCN2c2ccccc2)c1OC
→ -17, 101, 119, 99
O=C(Nc1ccc(Cl)c(Cl)c1)Nc1ncc2c(n1)CC(c1ccco1)CC2=O (stereo not given)
→ -6, 104, 119, 96
COc1cc(C2C(C(=O)Nc3ccccc3)=C(C)Nc3nnnn32)cc(OC)c1OC (stereo not given)
→ -19, 101, 111, 89
Cc1ccc2c(c1)N(CC(=O)NCc1ccccc1Cl)C=NS2(=O)=O
→ -33, 101, 99, 92
CCOC(=O)N1CCC(NC(=O)C2CCCN(Cc3nc(-c4ccc(CC)cc4)oc3C)C2)CC1 (stereo not given)
→ -17, 106, 91, 82
Clc1ccc(OCc2nnc3sc(-c4cc5ccccc5[nH]4)nn23)cc1
→ -3, 116, ., .
CCOc1ccc(NC(=O)C2CCCN2S(=O)(=O)c2ccc3c(c2)C(C)(C)C(=O)N3C)cc1 (stereo not given)
→ 11, 103, ., .
CN(C)c1ccc(NC(=O)/C=C/C(=O)O)cc1
→ -9, ., 101, 92
Cc1cc(C)cc(N(CC(=O)NCc2ccco2)S(C)(=O)=O)c1
→ -7, 102, 106, 72
